# PKD1 inh = PKD1 (human) kinase inhibition; inhibition, %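 (about 10 µM by stock and volumes)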; hit rate 0.056% among 200,000; PKD1 kinase fluorescence polarization assay; Q15139;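 active means inhibition of 50% or more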;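 further: controls were vehicle for no effect and a reference inhibitor for full effect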
# GALR2 ag = activates the human galanin receptor 2 | O43603 | GALR2-expressing cells, agonist activation read-out | hit rate 0.48% among 140,000 | activation, %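 (tested at 5 µM)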;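 active means above mean plus 3 SD of all compounds, about 5% in these data, not always enough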;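 further: 0% = vehicle buffer wells and 100% = reference agonist at full effect; tested in CHO reporter cells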
# Target sequence (O43603 whole entry, looked up): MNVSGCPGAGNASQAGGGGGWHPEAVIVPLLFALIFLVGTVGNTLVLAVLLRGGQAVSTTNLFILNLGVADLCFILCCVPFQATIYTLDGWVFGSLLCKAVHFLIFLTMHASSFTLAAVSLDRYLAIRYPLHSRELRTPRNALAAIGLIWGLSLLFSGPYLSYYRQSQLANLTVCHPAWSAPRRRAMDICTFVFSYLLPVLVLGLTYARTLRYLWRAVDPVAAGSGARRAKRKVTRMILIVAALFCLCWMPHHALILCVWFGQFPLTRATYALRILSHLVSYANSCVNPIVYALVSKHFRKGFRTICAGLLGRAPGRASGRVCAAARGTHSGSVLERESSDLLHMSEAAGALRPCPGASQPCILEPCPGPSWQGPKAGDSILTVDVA
# RGS16-Gao HTS = regulators of human RGS16-Galphao interaction | O15492+P09471 | bead-based flow cytometry RGS16-Galphao binding, fluorescence; actives lie on both sides | binding response (% of control), % at 10 µM | hit rate 0.38% among 220,000 | AID 1441;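 active means below 25% or above 175%, edge rows of some plates excepted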;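 further: Galphao activated by GDP with aluminum fluoride before binding; 100% = wells without compound and 0% = beads without RGS; some results beyond the cut were filed as inactive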
# Target sequence (O15492 whole entry, looked up): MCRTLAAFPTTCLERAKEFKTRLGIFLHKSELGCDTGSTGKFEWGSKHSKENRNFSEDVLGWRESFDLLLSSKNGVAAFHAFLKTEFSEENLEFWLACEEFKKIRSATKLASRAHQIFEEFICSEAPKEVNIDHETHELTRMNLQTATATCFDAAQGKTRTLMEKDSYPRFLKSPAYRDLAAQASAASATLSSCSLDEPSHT
# Target sequence (P09471 whole entry, looked up): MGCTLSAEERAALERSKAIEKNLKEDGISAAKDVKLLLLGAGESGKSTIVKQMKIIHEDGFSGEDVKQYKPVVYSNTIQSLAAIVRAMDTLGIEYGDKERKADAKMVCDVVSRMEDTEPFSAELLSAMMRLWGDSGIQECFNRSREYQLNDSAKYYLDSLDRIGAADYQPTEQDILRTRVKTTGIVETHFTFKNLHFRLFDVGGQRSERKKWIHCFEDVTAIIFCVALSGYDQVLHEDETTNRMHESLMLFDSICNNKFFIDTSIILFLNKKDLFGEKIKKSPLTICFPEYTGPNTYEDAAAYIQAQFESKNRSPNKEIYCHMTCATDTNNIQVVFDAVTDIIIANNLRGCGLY
# HSV augment = HSV replication enhancement | maximum fold increase | HSV replication augmentation in cells, fold increase | hit rate 0.005% among 220,000;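 active means peak rise of 1.5-fold or more in the series; inconclusive means self-fluorescent or not available for retest; tested in PC3 cells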;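 further: first round at 10 µM; read as green reporter fluorescence; hits show the peak of a series up to 25 µM; 1 = signal of infected wells without compound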
# INS promoter inh = TRM-6 insulin promoter activity inhibition. TRM-6 cells (human fetal islet line), insulin promoter-eGFP reporter, imaging; reporter expression induced with tamoxifen. inhibition, % at 2 µM. hit rate 0.9% among 130,000. AID 1273;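 active means inhibition above the mean plus 3 SD, with well images judged a real hit on visual review, cut at about 60% in these data, passing the limit was not always enough; inconclusive means inhibition over the cutoff but images rejected on review; inactive means inhibition not above the cutoff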
# INS promoter inh cell count = also measured in INS promoter inh; calls as there; normalized cell count, %; measured here: cell count, toxicity; reference of the scale not given here;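 cells exposed to compound for 48 h; stained nuclei by imaging scaled within each plate; lower means fewer cells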
# HSV augment primary fold = also measured in HSV augment; calls as there; fold increase; compound at 10 µM; measured here: primary screen fold increase 10 uM; tested in PC3 cells;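 GFP signal in the first replicate; 1 = infected wells without compound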
# The depositor's hits bear a star; i = inactive; ? = inconclusive; . = no result given.
SMILES,PKD1 inh,GALR2 ag,RGS16-Gao HTS,HSV augment,HSV augment primary fold,INS promoter inh,INS promoter inh cell count
COc1ccc(NC2=CC(c3ccc(OC)cc3)N(c3ccc(OC)cc3)C2=O)cc1 (centres undefined),-7,.,99,i,1,.,.
CC(C)C[C@H](NC(=O)c1nc[nH]c1C(=O)N1CCc2ccccc2C1)C(=O)OC(C)(C)C,.,.,104,i,0.75,.,.
O=C(O)CCn1cc(/C=C/C(=O)c2ccc(Cl)cc2)c(-c2cccc(Br)c2)n1,.,.,101,i,0.84,.,.
CC(=O)N1CCN(C(=S)c2ccc(-c3ccc(Cl)cc3)o2)CC1,-4,-2.6,66,i,0.89,.,.
O=C1/C(=C/N(C(=O)c2ccco2)c2ccc(Cl)cc2)Sc2ccccc21,0,-0.3,95,i,1,-2,160
O=C1Nc2ccc(NS(=O)(=O)c3cccs3)c3cccc1c23,9,-0.8,78,.,.,.,.
CC1=NCCN1CCNC(=O)Nc1ccc(C(C)(C)C)cc1,.,.,103,i,0.95,.,.
O=C(NCc1cccnc1)c1cc(S(=O)(=O)N2CCCCC2)ccc1Cl,-13,-5.6,111,i,0.8,-3,67
Cc1cccc(CSCc2ccc(C(=O)NC3CCCC3)o2)c1,12,.,90,i,0.97,-50,61
O=C(NCCc1ccncc1)Nc1ccccc1Cl,-15,-3.8,97,i,0.77,-50,131
COc1ccccc1CNc1ncnc2nc[nH]c12,14,-0.8,104,i,0.96,-100,101
Cc1sc2ncn(Cc3ccccc3F)c(=O)c2c1C,-2,.,110,i,0.92,0,89
O=C1CC(N(CCc2ccccc2)C(=S)Nc2ccccc2)C(=O)N1c1ccc(Br)cc1 (centres undefined),-4,-0.6,107,i,0.98,.,.
CCCn1c(N)c(N2CCCCC2)c(=O)n(CC(=O)Nc2ccc(OC(F)(F)F)cc2)c1=O,-3,-1.1,95,i,0.97,3,134
Cc1ccc(OCC(=O)Nc2ccc(CN3CCCCC3)cc2)c(C)c1,-9,.,99,i,1,.,.
CCOC(=O)Cc1cnc(N)s1,-1,.,105,i,0.94,.,.
O=C(Nc1ccccc1F)Nc1ccccc1Br,-6,.,104,i,1,-20,92
CC(C)N(C(=O)/C=C/c1cccc([N+](=O)[O-])c1)C(C)C,7,.,107,i,1,.,.
S=C(NCc1ccc(Cl)cc1)NC1CCN(Cc2ccccc2)CC1,-2,.,99,i,1,.,.
Cc1ccc(N2C(=O)C3CCC(C)(C2=O)C3(C)C)cc1C (centres undefined),-2,.,74,i,1,-64,90
CCOc1nc(C)ccc1-c1noc(C)n1,12,-0.2,92,i,0.79,.,.
COc1ccccc1NC(=O)CSc1nnc(COc2ccccc2OC)n1C,-1,.,112,i,0.82,.,.
CCOc1ccc(S(=O)(=O)NCCC(=O)NCc2ccco2)cc1,-5,-1.7,98,i,1,20,97
O=C1N(Cc2cccc(Cl)c2)C[C@@H]2C[C@@H](c3cccc4cccnc34)N3CCC[C@@]123,0,.,114,i,1,.,.
Cc1c(C(=O)O)oc2c1/C(=N\O)CCC2,-5,0.1,110,i,1,-4,111
Cc1ccc(CN2CCN(Cc3cnc(N4CCOCC4)s3)CC2CCO)cc1 (centres undefined),-2,.,104,i,0.97,.,.
O=C(CCCn1c(=S)[nH]c2ccsc2c1=O)Nc1ccc2c(c1)OCO2,-7,.,107,i,0.93,7,113
Cc1sc(Nc2ccc([N+](=O)[O-])cc2)nc1-c1c(C)n(C)n(-c2ccccc2)c1=O,6,-3.7,103,i,0.97,-15,114
CC1=C(C(=O)Nc2ccccc2)C(c2ccncc2)C(C#N)=C(SCC(=O)Nc2ccccc2)N1 (centres undefined),-7,0.3,104,i,0.84,-11,96
COc1ccc(S(=O)(=O)N2CCCC(C(=O)N3CCN(C)CC3)C2)cc1C (centres undefined),16,-1.3,107,i,0.95,-230,86
O=C(Cc1ccc(Cl)cc1Cl)Nc1cccc(S(=O)(=O)Nc2ccccc2F)c1,-2,-0.6,38,i,1.1,-27,121
COc1ccc(OC)c(C(C)NC=O)c1 (centres undefined),0,-1.6,104,i,0.97,22,113
Cc1cccc(NC(NC(=O)c2ccccc2[N+](=O)[O-])C(Cl)(Cl)Cl)c1 (centres undefined),-13,-0.8,98,i,1.1,20,132
Cc1cnn(C(=O)c2ccccc2Br)c1,-7,-1.4,102,i,1,-34,111
CC(=O)Nc1cccc(/C(C)=N/NC(=O)c2c(-c3ccccc3Cl)noc2C)c1,5,-1.3,57,i,1.1,-54,60
O=C(Nc1ccccc1C(F)(F)F)c1cc(-c2ccccc2O)on1,-2,3.3,96,i,1.2,.,.
O=C(Nc1ccc(N2CCN(C(=O)c3ccccc3F)CC2)cc1)c1ncn[nH]1,-4,.,91,i,0.85,-24,92
COC(=O)c1c(O)cc(=O)n2c1CCCCC2,4,.,100,i,1,.,.
Cc1ccccc1C(=O)OCCCN=C1NS(=O)(=O)c2ccccc21,-3,-1.4,77,i,0.91,62,86
O=C(NC(=S)Nc1ccc(N2CCOCC2)cc1)c1cccc(Cl)c1,7,-0.2,103,i,0.97,-90,120
Cc1nnc(SCC(=O)Nc2ccc(Oc3ccccc3)cc2)n1N,2,0.4,99,i,0.98,-48,94
O=C(Cn1c2c(sc1=O)C1c3ccccc3OCC1CS2)Nc1ccc(Cl)cc1 (centres undefined),1,-1.7,108,i,1.1,-19,103
CN1CCN(CC(=O)n2c3c(c4ccccc42)CCCC3)CC1,-4,-1.7,103,i,1,.,.
Cc1noc(C)c1S(=O)(=O)Nc1ccccc1Oc1ccccc1,.,.,92,i,1.1,.,.
COc1ccc(-c2oc(NC(=O)c3ccc(C)cc3)c(C#N)c2-c2ccc(OC)cc2)cc1,-6,-2.4,97,i,0.84,-27,100

# The final three records of the section before lead into the next:
SMILES,PKD1 inh,GALR2 ag,RGS16-Gao HTS,HSV augment,HSV augment primary fold,INS promoter inh,INS promoter inh cell count
CN1CCN(CC(=O)n2c3c(c4ccccc42)CCCC3)CC1,-4,-1.7,103,i,1,.,.
Cc1noc(C)c1S(=O)(=O)Nc1ccccc1Oc1ccccc1,.,.,92,i,1.1,.,.
COc1ccc(-c2oc(NC(=O)c3ccc(C)cc3)c(C#N)c2-c2ccc(OC)cc2)cc1,-6,-2.4,97,i,0.84,-27,100
O=C(Cn1c(NCCO)nc2ccccc21)c1cccs1,-3,-3.3,112,i,0.98,-3,104
O=C(CSc1nc(C2CC2)nc2sc3c(c12)CCCC3)NCc1ccco1,-1,-0.3,102,i,0.96,.,.
Clc1ccc(-c2nc(Cc3ccccc3)no2)cc1,7,-3.2,79,i,0.98,-84,97
CCO[C@@H]1OC(C(=O)O)=C[C@H](c2ccc3c(c2)OCO3)[C@H]1CCCO,10,.,102,i,0.77,.,.
CCCCNC(=O)CSc1nc2cc(OC)c(OC)cc2c(=O)n1Cc1ccc(OC)cc1,5,-1.1,99,i,0.68,-50,106
Cc1nc2ccccn2c1C(=O)N/N=C/c1ccc([N+](=O)[O-])cc1,.,.,96,i,0.96,.,.
COc1ccccc1NC(=O)C(Cc1ccc(Cl)cc1)c1nn[nH]n1 (centres undefined),-3,-1.9,97,i,0.8,-24,107
Cc1ccc(S(=O)(=O)N2CCN(c3nc(C)nc4sc5c(c34)CCC(C)C5)CC2)cc1 (centres undefined),0,-2.8,101,?,.,-20,93
CC(NC(=O)c1ccc(N2CCNCC2)c([N+](=O)[O-])c1)C12CC3CC(CC(C3)C1)C2 (centres undefined),-5,.,101,i,0.61,.,.
O=S(=O)(NCCc1ccccc1)c1ccc(S(=O)(=O)N2CCCCC2)cc1,-4,-1.4,108,i,0.89,.,.
Nc1c(C(=O)NCCN2CCOCC2)c2nc3ccccc3nc2n1-c1ccccc1,-7,2.1,101,i,0.9,.,.
O=C(Cc1cccs1)NNC(=S)NCc1ccc(Cl)cc1,2,-3.8,91,i,0.97,8,137
CCOC(=O)C1CCN(c2ncnc3c2c(-c2ccccc2)cn3-c2ccccc2)CC1,-3,.,85,i,0.88,-8,130
COc1ccc(C2c3c(ncn(CCCO)c3=N)Oc3ccc4ccccc4c32)cc1OC (centres undefined),.,.,97,i,0.7,.,.
O=C(Nc1ccc(N2CCN(C(=O)c3ccco3)CC2)cc1)c1cccnc1Cl,-1,.,108,i,1,.,.

# Part of the list above in order of number of heavy atoms, high to low:
SMILES,PKD1 inh,GALR2 ag,RGS16-Gao HTS,HSV augment,HSV augment primary fold,INS promoter inh,INS promoter inh cell count
O=C(Nc1ccc(N2CCN(C(=O)c3ccco3)CC2)cc1)c1cccnc1Cl,-1,.,108,i,1,.,.
O=S(=O)(NCCc1ccccc1)c1ccc(S(=O)(=O)N2CCCCC2)cc1,-4,-1.4,108,i,0.89,.,.
O=C(Cc1cccs1)NNC(=S)NCc1ccc(Cl)cc1,2,-3.8,91,i,0.97,8,137

# (further entries)
SMILES,PKD1 inh,GALR2 ag,RGS16-Gao HTS,HSV augment,HSV augment primary fold,INS promoter inh,INS promoter inh cell count
O=C(Oc1ccccc1)c1ccc(-n2cnnn2)cc1,5,-2.5,101,i,0.83,21,56
CCc1nc(SCC(=O)N2CCc3cc(OC)c(OC)cc3C2)c(C#N)cc1C,-7,-0.8,.,i,1,.,.
Cc1cc(NC(=O)CCC(=O)N(CCC(C)C)CC(=O)NCC2CCCO2)no1 (centres undefined),1,-2.2,101,i,0.99,.,.
CCOc1ccccc1-c1n[nH]c(=S)o1,-4,-1.5,102,i,0.94,-57,68
COc1ccccc1OCC(=O)NCCCn1ccnc1,0,.,100,i,1,-27,92
CCN(CC)C(=O)CN(c1cccc([N+](=O)[O-])c1)S(=O)(=O)c1ccccc1,-1,.,106,i,1,.,.
Cc1ccc2c(c1C)OC(=O)CC2(C)C,-2,0.8,106,i,1,-10,118
Cc1ccc(C(=O)N2CCN(S(=O)(=O)N3CCOCC3)CC2)cc1,1,.,102,i,0.95,.,.
COc1ccc2nc(N3CCCC(C(=O)NCCCN4CCN(C)CC4)C3)sc2c1 (centres undefined),-12,-0.9,102,i,0.96,-60,81
N#Cc1c(Cn2cncn2)nc(=O)n(-c2ccccc2)c1N,0,.,97,i,1.5,.,.
C=CCn1c(SCc2ccc(OC)cc2)nnc1-c1cccnc1,-7,-0.4,136,i,0.87,.,.
CC(/C=N/NC(=O)c1ccc(CN2c3cccc4cccc(c34)S2(=O)=O)cc1)c1ccccc1 (centres undefined),1,0.0,101,i,0.99,.,.
CCCc1cc(=O)[nH]c(SCC(=O)Nc2cc3c(cc2C(C)=O)OCO3)n1,-2,-1.6,97,i,1,-228,99
O=C(CSc1nnc(SCc2ccccc2)s1)NNC(=S)Nc1ccccc1,-3,-0.5,98,i,0.95,33,90
CCCCCNC(=O)C(C#N)c1nc2ccccc2nc1N1CCCC1 (centres undefined),7,0.3,126,i,1,-12,109
Cc1cc(C(=O)N2CCN(C(=O)c3ccco3)CC2)ccc1[N+](=O)[O-],0,.,104,i,0.92,.,.
Cc1nn(CC(=O)NCCc2ccc(Cl)cc2)c(C)c1[N+](=O)[O-],-3,-0.5,101,i,0.77,.,.
NC1=NC[C@H](c2ccccc2)N1CCc1cccc(F)c1,.,.,98,i,0.8,.,.
C=CCN1C(c2cccc(C(F)(F)F)c2)=CS/C1=C(/C#N)c1nnc(N2CCOCC2)n1-c1ccccc1,6,0.0,103,i,0.88,-12,114
CC1(C)C(c2ccccn2)=[N+]([O-])C(C)(C)N1O,-20,-1.4,101,i,1,.,.
CCn1c2ccccc2c2cc(/C=N/NC(=O)c3ccccc3)ccc21,-3,-0.7,112,i,0.72,.,.
NC(CO)c1cn([C@@H](CCC(=O)O)C(=O)N2CCNCC2)nn1 (some centres undefined),-3,.,96,i,0.87,.,.
COc1ccc(C(=O)NNC(=O)CNC(=O)C2CCCCC2)cc1,12,.,96,i,1.1,.,.
COc1ccc(-n2c(C)nc3cc(C(=O)O)ccc32)cc1,-3,-0.7,95,i,0.91,-3,112
CC(=O)c1ccc(NC(=O)Cn2c3ccccc3c3nc(=O)cc(C)n32)cc1,.,.,104,i,0.93,.,.
CCOC(=O)c1ccccc1NC(=O)c1ccc2nccnc2c1,-7,.,92,i,0.83,-67,44
COc1cc(/C=C2/SC(=O)N(Cc3ccccc3Cl)C2=O)ccc1OCc1ccncc1,-14,-2.2,103,i,0.91,17,116
COCC(=O)N(c1ccccc1)C(C)C(=O)OC (centres undefined),-1,.,104,i,1.1,6,142
O=C(Cn1nc(C(=O)O)c2ccccc2c1=O)Nc1ccc2c(c1)C(=O)c1ccccc1C2=O,.,.,111,i,1,.,.
Cc1ccc(-n2ncc3c(NCCCOC(C)C)ncnc32)c(C)c1,-4,-1.4,99,i,1,22,63
CCn1cc(C(=O)NCc2ccco2)c(=O)c2cc(S(=O)(=O)N3CCc4ccccc4C3)ccc21,-2,0.1,107,i,1,.,.
O=S(=O)(NCc1ccco1)c1ccccc1Br,.,.,93,i,0.96,.,.

# Screening results (PubChem)
